Assay outcomes as filed in PubChem BioAssay.
MT1-MMP act inh – blockers of MT1-MMP proenzyme processing, primary screen, HT1080 RFP-PRO-GFP cells, GFP/RFP fluorescence; Matrix metalloproteinase-14 (Homo sapiens), P50281; GFP/RFP ratio fluorescence, overnight; percent of plate control window, DMSO zero; GFP/RFP ratio change, % at 20 µM; 360,000 compounds, 0.061% hits; AID 651647, 2012;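 active = GFP/RFP ratio change of at least 30% with cell ATP level not reduced by more than half and red fluorescence within 50% of control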; also: strong numbers were not always called active
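Material: RFP-PRO-GFP reporter HT1080 cells. Dosing: single-point 20 µM compound, 1% DMSO. Controls: DMSO and RFP-L50D-GFP cell wells. Timing: cells overnight before dosing, compound overnight, 37 °C, 5% CO2. Measure: GFP/RFP fluorescence ratio.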
CSC inhib – cancer stem cell viability inhibitors, primary screen, luminescence. inhibition, % at 7.5 µM. AID 2717, 2010. 300,000 compounds, 1.1% hits. cancer stem cell-like cells viability;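 active = mean at 75% or more and at least half the replicates too; inconclusive = mean and replicates disagree; tested in HMLE shEcad cells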;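 also: 0% = median of negative and 100% = median of positive control wells; the first replicate is given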
Yeast UUG start – modulators of yeast start codon fidelity, primary screen, whole organism, S. cerevisiae, single point, plate reader. activity score, % at 18.7 µM. S. cerevisiae UUG-firefly luciferase reporter, luminescence/redox ratio. 350,000 compounds, 0.13% hits;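 active = replicate mean at a twofold rise or more, about +100% in these data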;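 also: firefly luciferase made from a UUG start codon reports start codon fidelity; reporter light over untreated wells divided by growth signal over untreated wells; some hits fall short of that in this replicate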
HIV Env fusion – inhibitors of HIV-1 Env-driven cell-cell fusion, primary screen, HeLa-JRFL effector, CEM21 target cells, luciferase | 360,000 compounds, 1.1% hits | inhibition, % at 12.3 µM;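 active = mean replicate inhibition score of at least 50 and every replicate individually at or above 50; inconclusive = only one of the two criteria met; inactive = mean below 50 and not all replicates reaching 50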;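 also: 0% = plate neutral controls and 100% = maraviroc near 300 nM; one replicate is shown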
Rce1 inh – yeast Rce1p protease inhibitors, primary screen, biochemical, fluorescence, cell-free homogeneous; CAAX prenyl protease 2 (Saccharomyces cerevisiae (strain ATCC 204508 / S288c)), Q03530; yeast membranes, quenched prenylated peptide cleavage fluorescence; calls only; 290,000 compounds, 0.27% hits;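 active = fall in fluorescence gain of 50% or more versus controls, with final raw signal at or below 3038400; inconclusive = same 50% fall but final raw signal above 3038400; inactive = fall in fluorescence gain under 50%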;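 also: plate controls were neutral control wells for no effect and wells lacking membranes for full effect; tested at 10 µM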
Target sequence (Q03530 whole entry, looked up): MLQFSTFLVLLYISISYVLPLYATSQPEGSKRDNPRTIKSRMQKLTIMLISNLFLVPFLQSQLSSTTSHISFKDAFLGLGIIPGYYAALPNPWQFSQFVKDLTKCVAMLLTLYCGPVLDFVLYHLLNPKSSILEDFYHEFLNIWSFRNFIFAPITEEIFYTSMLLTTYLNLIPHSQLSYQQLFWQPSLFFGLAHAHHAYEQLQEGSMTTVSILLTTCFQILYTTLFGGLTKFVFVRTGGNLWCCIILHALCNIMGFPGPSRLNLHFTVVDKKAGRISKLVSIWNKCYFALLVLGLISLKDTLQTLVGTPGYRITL
PABP FP inh – PABP poly(A) RNA binding inhibitors, primary screen, biochemical, fluorescence polarization, uHTS. AID 2014, 2009. 290,000 compounds, 1% hits. Polyadenylate-binding protein 1 (Homo sapiens), P11940. inhibition, % at 35 µM;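 active = 50% or more with normal probe brightness, or confirmed in later tests; inconclusive = above 50% with abnormal brightness, or retests that disagree; inactive = below 50% or failed in later tests; about a fifth of its hits are not listed in these tables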;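 also: calls also rest on retests at 20 µM and on dose response follow-up; controls were probe without protein and protein plus probe with vehicle; some compounds called inactive have numbers as strong as hits; many hits fall short of the cut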
eIF4H inh – human eIF4H binding inhibitors, primary screen, translation initiation inhibitor project, biochemical, uHTS, fluorescence polarization | Eukaryotic translation initiation factor 4H (Homo sapiens), Q15056 | eIF4H fluorescence polarization binding assay | inhibition, % at 35 µM | 290,000 compounds, 0.94% hits | AID 2012, 2009;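 active = 50% or more with normal probe brightness, or confirmed in later tests; inconclusive = above 50% with abnormal brightness, or retests that disagree; inactive = below 50% or failed in later tests; about a fifth of its hits are not listed in these tables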;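 also: calls also rest on retests at 20 µM and on dose response follow-up; 0% = protein and probe with vehicle and 100% = probe without protein; strong numbers were not always called active; many hits fall short of the cut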
eIF4H inh retest – second read-out of eIF4H inh, no call of its own (marks repeat the call); inhibition, %; compound at 20 µM; confirmation average;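 mean of two retest wells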
PABP FP inh retest – also measured in PABP FP inh; calls as there; inhibition, %; compound at 20 µM; confirmation repeats;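 mean of two retest wells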
MT1-MMP act inh RFP – second read-out of MT1-MMP act inh, no call of its own (marks repeat the call); RFP signal change, %; measured here: RFP expression control read;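 0 = vehicle wells; hits needed this value within 50% of zero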
The depositor's hits bear a star; i = inactive; ? = inconclusive; . = no result given; + = active, no number; & = joins results of further samples. The list is partial; the hit share may differ from the screen's.

SMILES	MT1-MMP act inh	MT1-MMP act inh RFP	CSC inhib	Yeast UUG start	HIV Env fusion	Rce1 inh	PABP FP inh	eIF4H inh	others
CCN(CCO)c1ccc(N=Cc2c(O)n(C)c(=S)[nH]c2=O)cc1	-15	11	-6	-18	-3	i	12	40
CC(C)Sc1nnc([C@@H](N)Cc2ccccc2)o1	1	5	-4	-8	-89	i	9	2
CNCC(=O)c1ccc(O)c(O)c1	4	1	.	-13	-7	.	.	.
CCN(CC)C(=O)c1ccc(NC(=O)CCCSc2ccccc2)cc1	4	6	-12	-8	4	i	-3	-4
Nc1ccc2ccc3cccc[n+]3c2c1	-174	-3	9	-27	18	i	?	?
COC(=O)C1=C(c2ccc(C(C)=O)cc2)C[C@@H]2CC[C@H]1N2C(=O)NCc1ccc(C(F)(F)F)cc1	-3	-4	-22	-15	.	.	.	.
CCN(CC(=O)Nc1ccc(NC(C)=O)cc1)C(=O)CSC(c1ccccc1)c1ccccc1	0	-2	-9	2	.	.	.	.
COc1ccc(O)c(C(C)(C)C)c1	-1	4	-3	-5	29	i	4	1
Cn1cccc1/C=C1/C(=O)NC(=O)N(Cc2ccc(F)cc2)C1=O	-41	25	13	.	-41	i	22*	?	PABP FP inh retest=76*
CCOC(=O)CC1=C(C(=O)OCC)C2(C(=O)Nc3ccccc32)C(C#N)=C(N)O1 (stereo not given)	2	4	-18	-21	16	i	-3	-11
COC(=O)C1=C(c2ccc(F)cc2OCc2ccccc2)C[C@@H]2CC[C@H]1N2C(=O)N1CCOCC1	0	-3	-13	-10	15	.	.	.
COc1ccc2cc(C(=O)C3CCCN(C4CCOCC4)C3)ccc2c1 (stereo not given)	3	2	48	-11	7	i	-5	6

The closing three records of the part before come first, to join the parts.
SMILES	MT1-MMP act inh	MT1-MMP act inh RFP	CSC inhib	Yeast UUG start	HIV Env fusion	Rce1 inh	PABP FP inh	eIF4H inh	others
CCOC(=O)CC1=C(C(=O)OCC)C2(C(=O)Nc3ccccc32)C(C#N)=C(N)O1 (stereo not given)	2	4	-18	-21	16	i	-3	-11
COC(=O)C1=C(c2ccc(F)cc2OCc2ccccc2)C[C@@H]2CC[C@H]1N2C(=O)N1CCOCC1	0	-3	-13	-10	15	.	.	.
COc1ccc2cc(C(=O)C3CCCN(C4CCOCC4)C3)ccc2c1 (stereo not given)	3	2	48	-11	7	i	-5	6
Clc1ccc(C(c2ccccc2)c2ncc[nH]2)cc1 (stereo not given)	-7	-2	-4	-17	22	i	6	2
CCSP1(=S)N=C(N2CCOCC2)C(C#N)=C2CCCN21 (stereo not given)	0	0	-16	-1	.	i	8	-3
OC(CNC1CCCCC1)c1ccccc1 (stereo not given)	-5	0	-10	-14	.	i	-11	3
C/C(=N\N1CCN(C)CC1)c1c(O)n(Cc2ccccc2)c(=O)[nH]c1=O	0	3	-9	.	1	i	-8	0
O=C(COC(=O)Cc1ccccc1)Nc1nnc(-c2ccccc2)o1	-1	1	-9	-25	-21	i	.	.
COc1ccc(-n2c(O)c(/C=C3\C=Nc4ccc(Br)cc43)c(=O)[nH]c2=O)c(OC)c1	3	2	60	-10	-92	i	?	?
CCOC(=O)C1CCN(/C=C2/C(=O)NC(=O)N(c3cccc(C)c3C)C2=O)CC1	-5	0	-7	-12	-4	i	8	-13
Cc1nc2ccc(Cl)cc2c(-c2ccccc2)c1C(=O)O	5	4	0	.	3	i	-4	-10
COc1ccc(NC(=O)N2CCC3(CC2)OCCO3)cc1	2	8	3	.	-15	.	-3	-2
CCOP(=O)(OCC)C(NC(=O)c1ccccc1)=C(Cl)Cl	4	7	-12	.	.	i	-4	-3
COc1ccccc1OCCCn1cc(C(C)=O)c2ccccc21	3	-21	9	-14	26	i	-6	-2
CCCCC(=O)N/N=C/c1c(O)n(-c2ccccc2)c(=O)[nH]c1=O	0	4	-7	.	8	i	5	13

Of the compounds above, these have a cyano group.
SMILES	MT1-MMP act inh	MT1-MMP act inh RFP	CSC inhib	Yeast UUG start	HIV Env fusion	Rce1 inh	PABP FP inh	eIF4H inh	others
CCOC(=O)CC1=C(C(=O)OCC)C2(C(=O)Nc3ccccc32)C(C#N)=C(N)O1 (stereo not given)	2	4	-18	-21	16	i	-3	-11
CCSP1(=S)N=C(N2CCOCC2)C(C#N)=C2CCCN21 (stereo not given)	0	0	-16	-1	.	i	8	-3

Additional compounds.
SMILES	MT1-MMP act inh	MT1-MMP act inh RFP	CSC inhib	Yeast UUG start	HIV Env fusion	Rce1 inh	PABP FP inh	eIF4H inh	others
Cc1cc(N(CCCl)CCCl)ccc1C=NNC(=O)c1cccnc1	14	-2	.	-2	24	.	.	.
O=C1NC(=O)N(c2ccc(Cl)cc2)C(=O)/C1=C\c1ccc(Sc2nc3ccccc3[nH]2)o1	21	71	34	.	-4	i	?	?
Brc1ccc2c(c1)-n1nncc1CN(CC1CCCCC1)C2	1	4	.	-4	-3	.	.	.
CN(C)C(=O)Oc1ccc(OCc2nc3ccccc3[nH]2)cc1	4	-7	53	.	.	i	-2	0
CC1(C)OC1COc1c2occc2cc2ccc(=O)oc12 (stereo not given)	1	-1	-2	-9	-14	i	-2	-1
CC(=O)Nc1cc(C(=O)N2CCC3(CC2)OCCO3)ccc1S(=O)(=O)c1ccc(C)cc1	3	0	-5	0	.	i	3	0
c1cnc2c(c1)ccc1ncccc12	-7	-4	-8	1	-4	i	10	6
COC(=O)C1=C(c2cccc(C#N)c2)C[C@@H]2CC[C@H]1N2C(=O)NCc1cc(C)oc1C(F)(F)F	2	3	-7	-15	-23	.	.	.
Cc1ccc(/C=C2\C(=O)NC(=S)N(c3ccc(F)cc3)C2=O)s1	-7	15	28	.	-57	i	-4	15
CC1(C)COC(Nc2ccc(Cl)cc2)=N1	-5	-8	5	26	13	i	-5	-5
Clc1ccccc1CNC1CN2CCC1CC2 (stereo not given)	-3	6	1	.	-2	i	-8	-1
COc1ccc(-n2c(Cc3ccccc3)nc3ccccc3c2=O)cc1	-1	-2	-1	-13	2	i	-10	-5
Cc1cccc(CN2CCN(CC(=O)N3CCC4(CC3)OCCO4)C2=O)c1	1	-4	-10	-7	-50	i	3	-3
CCCCCCn1c(O)c(C=Nc2ccccc2N2CCOCC2)c(=O)[nH]c1=S	3	2	0	-29	-4	i	-11	-6
Cc1nc2cc([N+](=O)[O-])ccc2c(=O)n1-c1ccccc1[N+](=O)[O-]	5	4	.	.	-50	i	-4	-3
O=C(O)c1cc2ccccc2oc1=O	3	-1	-17	2	-16	i	6	0
COC(=O)[C@@H]1C[C@@]1(C)[C@@H](NP(=O)(c1ccccc1)c1ccccc1)c1ccccc1	-5	1	5	-12	15	i	7	-1
CSc1ncc(CN2CCCC(C(=O)c3sccc3C)C2)cn1 (stereo not given)	6	6	2	.	3	.	3	9
CCN(CC)S(=O)(=O)c1cc(NC(=O)C(C)N2CC=C(c3ccccc3)CC2)ccc1C (stereo not given)	-1	-10	12	.	27	i	-9	-2
CN1CCN(c2ccc([N+](=O)[O-])c(Sc3nncn3C)c2)CC1	-1	0	-6	.	-9	+	-2	9
CC(=O)Nc1cc([As](=O)(O)O)ccc1O	-2	-1	-13	-8	2	i	-8&3	2&-3
NC1CCc2cc(O)c(O)cc2C1 (stereo not given)	1	3	2	-12	5	.	.	.
O=[N+]([O-])c1ccc(C2[C@H]3C(c4ccccc4)=NC4(CCCCC4)N23)cc1 (stereo not given in full)	-1	-2	4	.	-3	.	1	-10
O=C(NC1CN2CCC1CC2)c1ccc(-c2ccc([N+](=O)[O-])cc2)o1 (stereo not given)	0	0	-15	.	-24	i	-11	6
CCS(=O)(=O)NCc1nnc2n1-c1ccc(Br)cc1C(c1ccccc1Cl)=NC2	-1	1	-3	-16	8	i	.	.
CCCCCCC(=O)N/N=C/c1c(O)n(C(C)CC)c(=S)[nH]c1=O (stereo not given)	2	-2	16	-26	8	i	2	5
CC(C)CCNC(=O)c1cc(C(=O)c2cc(Br)ccc2O)cn(CCC(C)C)c1=O	-21	-17	10	-10	32	i	14	-6
O=c1c2ccccc2nc(Cc2ccccc2)n1-c1cccc(O)c1	-1	-8	60	-7	30	i	4	10
CCCCn1c(N)c(C(=O)NCc2cccs2)c2nc3ccccc3nc21	-18	-3	41	-22	-86	i	-8	4
Clc1ccc2c(c1)C(c1ccccc1Cl)=NCc1nnc(N3CCN(CCOc4ccccc4)CC3)n1-2	0	-3	-10	-2	0	i	-3	2
O=c1[nH]c(=S)n(-c2ccccc2)c(O)c1/C=N/N1CCOCC1	-5	-2	-9	.	18	.	-8	-8
CCOc1cc2c(cc1OCC)-n1cccc1C(c1ccc(OC(F)F)cc1)NC2 (stereo not given)	-3	-5	-6	9	7	i	7	-11
CC(C)N1CCN(Cc2ccccc2C(F)(F)F)CC1CCO (stereo not given)	-4	1	24	.	18	i	-4	0
CC(Cc1ccccc1)N(C)CC1C(=O)C2CCC1C2 (stereo not given)	2	2	.	-1	20	.	.	.
C[N+](C)(C)CCOC(=O)CBr	2	1	-13	10	-17	.	.	.
COc1ccc(N=Cc2c(O)n(C)c(=O)[nH]c2=O)cc1	-4	-1	5	-11	-6	i	-9	35
O=C(CCc1nnc2ccc(NCc3ccccc3Cl)nn12)N1CCC2(CC1)OCCO2	-1	-5	0	-20	8	i	0	-16
CCOC(=O)c1nsnc1NCCCl	-1	3	-18	-5	-7	i	-3	8
Nc1ccnn1C1CCNCC1	3	1	-3	-10	-2	i	12	0
Cc1ccc(-n2c(C)nc3ccccc3c2=O)c(C)c1	0	1	-2	-16	-18	i	3	4
O=c1c2ccccc2nc(Cc2ccccc2)n1-c1ccccc1	-4	1	0	-5	-6	i	3	-3
Clc1cccc(N2Cc3ccccc3-n3nncc3C2)c1	4	0	.	-3	4	.	.	.
CN1C(C(=O)N2CCC3(CC2)OCCO3)=CC(c2ccc(F)cc2)=NS1(=O)=O	-1	0	-12	-1	-4	i	-7	-22
COc1ccc(C(=O)C2CCCN(Cc3ccc(F)cc3F)C2)cc1F (stereo not given)	1	-1	0	-14	-2	i	-4	-14
O=c1[nH]c(=O)n(CCc2ccccc2)c(O)c1C=NC1CC1	2	3	-11	-9	-6	i	4	-6
COCCCN=Cc1c(O)[nH]c(=S)[nH]c1=O	-1	4	-4	-7	-10	i	2	-6
O=C1NC(=O)C(CCc2ccncc2)(CCc2ccccn2)C(=O)N1c1ccc(Br)cc1 (stereo not given)	-2	-1	-10	.	8	i	-2	3
CC(=O)N(C)CC#CCN1CCCC(CO)C1 (stereo not given)	-1	-3	4	-16	-33	i	.	.
COc1ccc(NS(=O)(=O)c2ccc(OCC(=O)N3CCN(C)CC3)cc2)cc1Cl	0	-4	3	-8	.	i	3	-13
C=CCc1cc(C=C2C(=O)N(C)C(=O)N(C)C2=O)cc(OCC)c1OCc1ccccc1	-12	-5	-8	.	9	i	5	83	eIF4H inh retest=22;PABP FP inh retest=17
O=[N+]([O-])c1ccc(N2CCCC2)cc1N/N=C1\CN2CCC1CC2	1	-6	7	-1	11	i	11	1
